AID504770: growth inhibitors of E. coli YBA685 in a screen for V. cholerae RctB (chromosome II replication) inhibitors. E. coli YBA685 rctB-dependent plasmid, OD600 growth, 3 h; hits give low values. z-score (no concentration beside the values). AID 504770. 130,000 compounds, 0.27% hits;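 active = z-score under -2 on both plates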;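 also: wells of about 30 µL received 100 nL stock; score is relative to mean and SD of the test wells; the first replicate is given; strong numbers were not always called active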
Ba CapD inh: CapD enzyme inhibition; purified CapD enzyme, fluorescence intensity read-out; hits give low values; some hits fall short of the stated cut; z-score (test concentration not listed); 140,000 compounds, 0.23% hits; AID 492967;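 active = z-score under -4 in either of two replicates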;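 also: stock transfer was 100 nL into about 40 µL; score is relative to mean and spread of the plate; one replicate is shown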
An asterisk follows results filed as active; · = not tested or not shown.

Compound	AID504770	Ba CapD inh
O=C(O)CC(C(=O)Nc1cc(C(F)(F)F)cc(C(F)(F)F)c1)C1=CCCCC1 (configuration not stated)	-0.8	0.75
COCCN1Cc2cccc(C(=O)Nc3c(C)cccc3C)c2C1=O	-0.2	0.34
CCC(=O)OCC(=O)[C@@]1(OC(=O)CC)[C@@H](C)C[C@H]2[C@@H]3CCC4=CC(=O)C=C[C@]4(C)[C@@]3(Cl)[C@@H](O)C[C@@]21C	·	-0.4
c1ccc(C2C3=C(Nc4ncnn42)c2ccccc2OC3c2cccs2)cc1 (configuration not stated)	-0.15	·
O=C(c1noc2c1CCCC2)N(Cc1ccco1)C1CCCC1	0.85	0.035
O=C(OCc1ccccc1)Sc1nnc(-c2ccccc2Cl)o1	0.55	·
O=S(=O)(NCc1ccc2c(c1)CCO2)c1cccs1	0.55	0.94
Oc1cccc(Oc2ncc(C(F)(F)F)cc2Cl)c1	-0.75	-0.53
COc1cc(Nc2nc(SCC(=O)NCCc3ccc(S(N)(=O)=O)cc3)nc3ccccc23)cc(OC)c1	·	0.12
COc1ccc(N2C(=O)C3CC=CCC3C2=O)cc1 (configuration not stated)	-1	-0.14
O=C(O)C1CCCCC1C(=O)Nc1ccc(CN2CCCCC2)cc1 (configuration not stated)	0.2	0.54
Cc1oc2ccc(O)c(CN3CCCCC3)c2c1C(=O)Nc1ccccc1	-4	0.7
S=c1nc(-c2ccccc2)n(CCCn2ccnc2)c2c1CCCC2	0.15	·
CCC/C=C/COC(=O)NNC(=O)c1ccccc1-n1cccc1	·	0.42
O=C(CNC(=S)N1CC2CC(C1)c1cccc(=O)n1C2)NC1CCCCC1 (configuration not stated)	-0.05	0.6
CCOC(=O)C1CCCN(C(=O)CSc2ccc3ccccc3c2)C1 (configuration not stated)	-0.2	0.18
O=C(O)c1ccc2noc(-c3ccccc3)c2c1	·	-0.86
COc1cc(CN2CCN(S(=O)(=O)c3cc(Cl)c(Cl)s3)CC2)cc2c1OCO2	·	0.095
CCc1ccc(N=Cc2c(O)[nH]c3ccccc23)cc1	1.8	1.2
O=C(O)CC1(CC(=O)N2CCC(Cc3ccccc3)CC2)CCCC1	-0.75	-0.98

Molecules shown so far with an aryl thioether with sulfur outside any ring, in the order listed:
Compound	AID504770	Ba CapD inh
COc1cc(Nc2nc(SCC(=O)NCCc3ccc(S(N)(=O)=O)cc3)nc3ccccc23)cc(OC)c1	·	0.12
CCOC(=O)C1CCCN(C(=O)CSc2ccc3ccccc3c2)C1 (configuration not stated)	-0.2	0.18

(cont.)
Compound	AID504770	Ba CapD inh
Cc1cc(Cl)ccc1NC(=O)COCC(=O)O	0.4	-0.8
COC(=O)c1cc(=O)c2c(C)nc(-c3ccc(Cl)cc3)nc2[nH]1	-0.85	-0.1
O=[N+]([O-])c1ccc(Sc2cc(Cl)ccc2Cl)nc1	·	0.095
CC(C)(C)c1ccc(C(=O)N/C(=C\c2ccc([N+](=O)[O-])cc2)C(=O)Nc2ccccc2Cl)cc1	·	-0.51
O=C1CSC(=NC(=O)c2ccc(Cl)c(Cl)c2)N1	0.5	-0.035
COc1ccc(/C=C2\SC(=N)N(c3ccc(C)c(C)c3)C2=O)cc1OC	·	0.14
CN(C)CCOC(=O)CCN1C(=O)/C(=C/c2ccc3c(c2)OCO3)SC1=S	·	-3.7
CC(C)CNC(=O)CCN1C(=O)c2ccccc2S1(=O)=O	-0.75	-0.52
COC(=O)c1ccccc1NC(=O)c1cc2nc(-c3cccs3)cc(C(F)(F)F)n2n1	·	0.12
CC(NC1CCCC1)c1ccccc1 (configuration not stated)	-0.5	·
CSc1c2c(nc3cc(-c4cccs4)nn13)CC(C)(C)CC2=O	1.1	-0.18
O=C1OCc2cccc3cccc1c23	-0.8	·
O=C(OCN1C(=O)c2ccccc2C1=O)c1ccc(N2CCCC2=O)cc1	0.7	·
CC(=O)CCn1cc([N+](=O)[O-])nc1C	·	-1.5
CC1CN(C(=O)c2ccc3c(c2)OCO3)C(C)CN1C(=O)c1ccc2c(c1)OCO2 (configuration not stated)	-0.4	0.13
CC1(C)CC(=O)C2=C(C1)N(c1ccccc1)C(N)=C(C#N)C2c1ccc(Br)s1 (configuration not stated)	·	0.41
COc1cc(C)c(/C=N/NC(=O)Cc2c[nH]c3ccccc23)cc1C	·	0.56
CCOC(=O)c1ccc(S(=O)(=O)NCC(c2ccccc2)N(C)C)cc1 (configuration not stated)	-0.8	·
CN(C)C(CNC(=O)c1ccc2c(c1)OCCO2)c1ccco1 (configuration not stated)	0.6	·
N#CC(C(=O)Cc1cccs1)c1ccccn1 (configuration not stated)	0.1	·

The list goes on.
Compound	AID504770	Ba CapD inh
O=S(=O)(c1ccc(F)c(Cl)c1)N(Cc1ccco1)CC1CCCO1 (configuration not stated)	·	-1.5
O=C(O)CC1(CC(=O)Nc2cccnc2)CCCCC1	-0.25	1.4
COc1ccc2ccccc2c1CN1CCN(C(=O)OCc2cccc(F)c2F)CC1	·	0.005
CCOC(=O)CC1=C(C(=O)OCC)C(c2c(Cl)cccc2Cl)C(C#N)=C(N)O1 (configuration not stated)	·	-0.87
O=C(Cn1nc(-c2ccccc2)c2ccccc2c1=O)Nc1cccc(C(F)(F)F)c1	1.6	-0.95
COc1ccc(N2C(=O)Cc3ccccc3C2=O)cc1	0.3	0.2
CC(CCOC(=O)N1CCC(C(=O)c2ccc(Cl)cc2)CC1)c1ccccc1 (configuration not stated)	·	-0.1
CCOc1ccccc1NC(=O)CC(C)S(=O)(=O)c1ccc2c(c1)NC(=O)CS2 (configuration not stated)	1.9	-2.1
CCN1CCn2c3c(c4cc(Br)ccc42)CCCC31 (configuration not stated)	-0.6	-0.6
CSc1ccc(NC(=O)NCC2COc3ccccc3O2)cc1 (configuration not stated)	1.6	-1.2
O=C(O)C1CCN(C(=O)C2CCC2)CC1	0.1	0.39
CN1CCN(CCCn2nnc3c(=O)oc4ccccc4c32)CC1	0.55	0.67
CCn1c(=O)cc(OCC(=O)NCc2cccs2)c2ccccc21	-0.9	1
CCn1cc(C(=O)O)c(=O)c2cc(F)c(N3CCN(C(=S)NC(=O)c4c(-c5ccccc5)noc4C)CC3)cc21	-0.7	9.6
Cc1ccc(S(=O)(=O)N(C)c2ccc(OCC(=O)N(C)Cc3ccc(C)o3)cc2)cc1	0.6	·
C=C1SC(Nc2ccc(C(=O)OCC)cc2)=NC12CCCCC2	0.85	0.05
COc1cccc(OC)c1CN(C)C(=O)c1c(C(F)(F)F)ccnc1OC	0.55	-0.48
N#Cc1cc2c(nc1SCC(=O)N1CCCCC1)CCCCC2	-0.25	0.1
O=C1OC(COc2ccc(Br)cc2)CN1c1ccccc1 (configuration not stated)	0.45	0.62
FC(F)(F)c1ccc(N2CCOCC2)nc1	-0.5	·

(next part)
Compound	AID504770	Ba CapD inh
CC1=C(c2ccccc2)S(=O)(=O)N=C1N(C)Cc1ccccc1	-1.1	-0.35
c1ccc(CCCNc2nnnn2-c2ccccc2)cc1	-0.2	·
CC(C)C(c1nnnn1C1CCCC1)N1CCc2ccccc21 (configuration not stated)	-0.55	·
Cc1oc(S(=O)(=O)N2CCOCC2)cc1C(=O)NCCNc1ncccc1C(F)(F)F	0.4	3.9
COc1cc(C)cc2oc(=O)cc(C)c12	-0.55	23
COc1ccc(-c2cc(C(=O)NC(C)(C)CO)on2)cc1OC	2	-0.27
O=C1c2ccccc2C(O)(Cc2ccccc2)N1CCCO (configuration not stated)	0.5	0.59
O=C(CSc1nc2ccc(NC(=O)CCc3ccccc3)cc2s1)NCC1CCCO1 (configuration not stated)	·	0.89
COc1cccc(-n2c(N)c(C(N)=O)c3nc4ccccc4nc32)c1	0	·
COc1ccc(C2=NN(c3ccc([N+](=O)[O-])cc3)C(=O)/C2=C\c2ccc(OC)c(O)c2)cc1	·	-1.1
O=S(=O)(Nc1ccc(S(=O)(=O)C(F)F)cc1)C1=Cc2ccccc2CC1	0.6	·
Cc1cc(Sc2nnnn2-c2ccccc2)nc2ccccc12	0.2	-0.76
COc1ccc(CCN2C(=O)CC(Nc3ccccc3)C2=O)cc1OC (configuration not stated)	0.5	·
COc1ccc(S(=O)(=O)N2Cc3ccccc3CC2C(=O)Nc2nccs2)cc1OC (configuration not stated)	-0.65	-1.1
O=C(Nc1ccccc1C(=O)N/N=C/c1cc(OCc2ccccc2)cc(OCc2ccccc2)c1)c1cccs1	·	0.6
CC1CCN(CC(O)Cn2c(-c3ccccc3)c(-c3ccccc3)c3ccc4ccccc4c32)CC1 (configuration not stated)	·	11
O=C(O)CS(=O)(=O)c1ccccc1	0.65	·
COc1ccccc1N1C(=O)C=CC1=O	1.2	-0.95
CC1(C)OC(=O)C(=CNc2ccc(F)c(Cl)c2)C(=O)O1	·	0.27
Cc1ccc[n+](C2C(c3ccc([N+](=O)[O-])cc3)C(C#N)=C([S-])NC2(O)C2CC2)c1 (configuration not stated)	·	5.7

A few values from the results shown:
Reading of COc1ccc(C2=NN(c3ccc([N+](=O)[O-])cc3)C(=O)/C2=C\c2ccc(OC)c(O)c2)cc1 in Ba CapD inh: -1.1
Reading of COc1ccc(-c2cc(C(=O)NC(C)(C)CO)on2)cc1OC in AID504770: 2
Reading of CC1(C)OC(=O)C(=CNc2ccc(F)c(Cl)c2)C(=O)O1 in Ba CapD inh: 0.27
Reading of CC1=C(c2ccccc2)S(=O)(=O)N=C1N(C)Cc1ccccc1 in Ba CapD inh: -0.35
Reading of Cc1cc(Sc2nnnn2-c2ccccc2)nc2ccccc12 in Ba CapD inh: -0.76

Additional structures follow:
Compound	AID504770	Ba CapD inh
CSc1ccccc1NC(=O)CN(C)C(=O)Cn1c(=O)oc2ccccc21	-1	·
O=C(CCN=C1NS(=O)(=O)c2ccccc21)Nc1cccnc1	-0.25	·
Cc1oc(-c2cccc(Cl)c2)nc1CN1CCC(C(=O)NCc2ccc(Cl)cc2)CC1	-0.6	0.78
O=C(NCCSc1nnnn1-c1ccccc1)c1ccco1	-1.1	0.065
CC(C)OC(=O)c1cc(NC(=O)C2C3CCC(O3)C2C(=O)O)cc(C(=O)OC(C)C)c1 (configuration not stated)	0.3	0.91
O=c1[nH]c(CSC2CCCCC2)nc2ccccc12	-0.8	·
Cc1ccc(NS(=O)(=O)c2cn(C)cn2)cc1	-0.4	0.94
CC(C)C(NS(=O)(=O)c1ccc2c(c1)OCCCO2)C(=O)O (configuration not stated)	0.15	·
Cn1nnnc1SCC(=O)N1c2ccccc2Sc2ccccc21	0.2	·
CC(=O)Nc1ccc(C(=O)CSc2nc3ccccc3n2C)cc1	-0.65	·
CCOc1ccc2nc(S/C=C/C(=O)c3ccc(Cl)cc3)sc2c1	-0.15	0.085
COc1cccc(CNC(=O)c2cccs2)c1	-0.85	·
Cc1ccc(C)c(C(=O)OC2CCCCC2=O)c1 (configuration not stated)	-0.2	·
NNC(=O)[C@H]1C[C@@H]1C(=O)NN	·	-0.11
Cc1c(NC(C)C(=O)Nc2ccc(S(=O)(=O)N3CCOCC3)cc2)c(=O)n(-c2ccccc2)n1C (configuration not stated)	-1.6	·
CC1(C)Cc2cccc(Oc3ncnc4sccc34)c2O1	1.1	·
CNS(=O)(=O)c1cc(C(C)(C)C)cc(C)c1C	-0.1	-0.18
O=C(NCC(F)(F)F)OCc1ccc(F)cc1	-0.35	-0.48
COc1ccccc1NC(=S)NCc1cccn1C	0.45	-1.1
CCCc1nc2c(sc3nc(COC)cc(C)c32)c2nc3ccccc3n12	0.45	33

Later entries.
Compound	AID504770	Ba CapD inh
COc1cccc2cc(C(=O)CBr)c(=O)oc12	-1.8	-2.6
CCSc1n[nH]c(C(F)(F)F)n1	0.3	1
O=C(NCc1n[nH]c(=O)c2ccccc12)C1CC1	-0.5	·
CC1(C)Cc2c(c(=O)n(-c3ccccc3)c3ncnc(N)c23)CO1	-1.1	-1.3
COC(=O)CC/C(O)=C1\C(=N)CC(C)(C)CC1=O	-0.5	-0.02
COC(=O)c1ccccc1Oc1ccc(NC(=O)c2ccccc2)cc1	-0.85	-0.34
COc1ccc(-c2nc3cc(F)c(Cl)cc3nc2-c2ccc(OC)cc2)cc1	0.5	0.64
O=C(Nc1cc(C(=O)N2CCC(Cc3ccccc3)CC2)ccc1N1CC2CC(C1)c1cccc(=O)n1C2)c1cccs1 (configuration not stated)	·	-0.01
C[N+]1(C)CCOC12CCCCC2	0.7	·
Clc1ccc(-c2noc3ncnc(Nc4ccccc4)c23)cc1	0.45	-0.63
CC1=C/C(=N\Nc2nc(C)cc(=O)[nH]2)CC(C)(C)C1	-3.1	·
Cc1cccc(-n2nnnc2C2(N=Cc3cccc([N+](=O)[O-])c3)CCCCC2)c1	·	36
Fc1cccc(Cl)c1-c1nnc2ccc(C(F)(F)F)cn12	1.1	0.52
Cc1ccc(-c2nc3ccccc3c(=O)o2)cc1	0.95	0.44
Cc1cccc(C)c1OCc1nc2c3cnn(-c4nc5ccccc5s4)c3ncn2n1	0.8	-1.4
CCOC(=O)N1CCN(c2ncnc3c2c(-c2ccccc2)cn3-c2ccc(OCC)cc2)CC1	·	-0.98
O=C(OCCCC1CCCCC1)N1CCN(c2ccc(C(F)(F)F)cn2)CC1	·	2.1
Cc1cc(C(=O)NN2C(=O)CSC2c2ccc(-n3ccnc3)cc2)c(C)o1 (configuration not stated)	0.75	·
CCN(Cc1ccccc1)C(=O)C1CC2CCCN2C12C(=O)Nc1ccccc12 (configuration not stated)	-0.7	-1.4
CCOC(=O)/C(C#N)=C1/C=C(C)NC(c2ccccc2O)=N1	-0.3	-0.33

Fetched one by one from the entries so far, four records:
Compound	AID504770	Ba CapD inh
C[N+]1(C)CCOC12CCCCC2	0.7	·
Clc1ccc(-c2noc3ncnc(Nc4ccccc4)c23)cc1	0.45	-0.63
Cc1cccc(C)c1OCc1nc2c3cnn(-c4nc5ccccc5s4)c3ncn2n1	0.8	-1.4
O=C(NCc1n[nH]c(=O)c2ccccc12)C1CC1	-0.5	·
